Compound activity from PubChem BioAssay.
N370S GC: N370S glucocerebrosidase modulation, Gaucher chaperone candidate. N370S GC spleen homogenate, 4MU-glucoside fluorescence. Potency, µM (top dose mostly 59.4 µM), inactives show top-dose activity change, negative = inhibition, hits mostly inhibitors. 0.092% of 330,000 active. AID 2101;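 also: 0% = full enzyme activity and -100% = no enzyme basal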
TDP1 inh: inhibitors of human tyrosyl-DNA phosphodiesterase TDP1; recombinant TDP1, AlphaScreen DNA substrate cleavage; Potency, µM (top dose mostly 130 µM), inactives show at the highest dose activity change, negative = inhibition, actives largely listed as inhibitors; 0.28% of 350,000 active; AID 485290; also: nearly all actives have a fitted effect of over 40% in size
Target sequence (Q9NUW8 whole entry, looked up): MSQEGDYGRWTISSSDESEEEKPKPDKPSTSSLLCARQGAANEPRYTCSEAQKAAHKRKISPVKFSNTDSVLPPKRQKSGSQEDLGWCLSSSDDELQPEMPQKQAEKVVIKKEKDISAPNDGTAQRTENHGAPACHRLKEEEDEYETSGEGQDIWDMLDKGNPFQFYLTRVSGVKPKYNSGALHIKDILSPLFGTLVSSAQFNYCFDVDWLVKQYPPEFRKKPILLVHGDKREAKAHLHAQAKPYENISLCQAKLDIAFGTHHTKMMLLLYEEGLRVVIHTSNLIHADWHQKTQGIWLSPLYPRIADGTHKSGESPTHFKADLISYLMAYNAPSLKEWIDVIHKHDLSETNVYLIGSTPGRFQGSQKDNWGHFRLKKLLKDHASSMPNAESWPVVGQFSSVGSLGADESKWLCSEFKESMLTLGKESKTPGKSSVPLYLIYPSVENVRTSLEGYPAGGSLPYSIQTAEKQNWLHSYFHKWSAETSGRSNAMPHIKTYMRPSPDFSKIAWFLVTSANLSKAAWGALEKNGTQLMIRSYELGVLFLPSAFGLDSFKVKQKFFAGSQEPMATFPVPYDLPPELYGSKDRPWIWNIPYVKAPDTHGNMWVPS
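Recombinant E. coli-expressed Tdp1 (1 nM) preincubated with compound 15 min at RT, then 5'-biotin/3'-phosphotyrosine-FITC DNA substrate (15 nM) added for 5 min. AlphaScreen beads (10 ug/ml) added, 10 min RT; tyrosine-FITC cleavage read as signal loss.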
Starred values were filed as active, the others as inactive; x = not tested or not shown; & = joins results of further samples; [ ] = remark or other dose. Calls follow the shape of the dose curve; as a rule, active = well fitted curve in the direction sought with a large enough effect; inconclusive = small, poorly fitted or top-dose-only effect, or another doubt; inactive = no such curve, though single readings can be large; an effect the other way counts as inactive or inconclusive. Unless noted, % is scaled to controls: 0 for no effect and ±100 for the full control effect; potency is read from the fitted curve at half-maximal effect.

cpd	N370S GC	TDP1 inh	Molecule
1	1.5%	1.1%	COc1ccc(CNC(=O)/C=C/c2cc([N+](=O)[O-])ccc2OC(F)F)cc1OC
2	6.0%	-6.2%	CC1Cc2ccccc2N1S(=O)(=O)c1ccc(Cl)nc1 (centres undefined)
3	6.1%	11.0%	Cc1c(C(=O)Nc2ccccc2[N+](=O)[O-])csc1-c1ccccc1
4	0.2%	0.0%	CC(OC(=O)CCc1nc2ccccc2c(=O)[nH]1)C(=O)Nc1ncc(Cl)cc1Cl (centres undefined)
5	x	3.1%	CCn1c(SC(C)C(=O)NC2CCCC2)nc2cc(S(N)(=O)=O)ccc21 (centres undefined)
6	3.5%	3.3%	CCOc1ccc(NC(=O)C2CCCN(C(=O)Nc3ccccc3)C2)cc1 (centres undefined)
7	-0.6%	3.3%	CCOC(=O)c1ccc(N2C(=O)CC(N3CC(C)OC(C)C3)C2=O)cc1 (centres undefined)
8	-4.3%&0.2%	1.1%&2.6%	CCN(CC)CCN1C(=O)Cn2c(C)c(C)c3cccc1c32
9	-9.2%	9.6%	CCOc1ccc(-n2c(C)cc(/C=N/Nc3nc(C)cc(=O)[nH]3)c2C)cc1
10	4.5%	5.2%	O=C(Nc1nncs1)c1cccc(S(=O)(=O)N2CCCCC2)c1
11	-17.4%	7.1%	CCCn1c(SCC(=O)N2CCN(S(=O)(=O)c3ccc(Cl)cc3)CC2)n[nH]c1=O
12	19.7%	9.2%	O=C(NCc1cccs1)C(=O)c1c[nH]c2ccccc12
13	-2.2%	-2.5%	C=CCNC(=S)NNC(=O)C(CCCC)CC(C)(C)O (centres undefined)
14	-6.6%	2.1%	CCOc1ccc(N(CC(=O)Nc2ccc(Br)cc2)S(C)(=O)=O)cc1
15	4.8%	2.0%	COc1cnn(C(C)(C)C)c(=O)c1Cl
16	8.0%	1.2%	Cc1ccc(S(=O)(=O)N2CCCCC2)cc1NC(=O)C1CC(=O)N(Cc2ccccc2)C1 (centres undefined)
17	7.2%	-3.3%	CN1C(=O)C2(OCC(COc3ccc(Cl)cc3)O2)c2ccccc21 (centres undefined)
18	-11.0%	x	O=C(OCc1ccc(Br)cc1)c1cccnc1Cl
19	0.7%	4.1%	c1ccc(-c2noc(-c3cccnc3)n2)cc1
20	1.0%	5.0%[56.1 µM]	CC(C)c1ccc(NC2CCCN(C(=O)CCCn3cncn3)C2)cc1 (centres undefined)
21	-6.0%	2.8%	COC(=O)c1ccccc1NC(=O)CN1CCN(c2ccccn2)CC1
22	0.4%	x	Cc1ccnc(NC(=O)Cc2c(F)cccc2Cl)c1
23	-24.2%	5.7%	O=C(O)c1ccc2cccc(O)c2n1
24	0.8%	x	Cc1c(Cl)cccc1-n1c(SCC(=O)N2CCC(C(=O)O)CC2)nc2ccccc2c1=O
25	2.9%	8.2%	Cc1ccc(C(=O)NNC(=O)CSc2nc(N)cc(N)n2)cc1
26	-4.0%	5.0%	O=S(=O)(NCC1CCCO1)c1ccccc1 (centres undefined)
27	6.7%	1.5%	CCOC(=O)N1CCN(C(=O)c2oc3ccc(S(=O)(=O)N4CCCCC4)cc3c2C)CC1
28	1.0%	2.3%	Cn1nnc2cc(C(=O)NC3CCCCC3)ccc21
29	2.8%	3.6%	O=C(O)c1ccc(CNC(=S)Nc2ccccc2)cc1
30	3.7%	2.1%	Cc1ccccc1CN1CCCC(C(=O)Nc2ccccc2Oc2cccnc2)C1 (centres undefined)
31	0.4%	-14.1%	CSC1=N/C(=C\c2ccc(C)s2)C(=O)S1
32	2.7%	x	CN(C)CCCn1c(SCc2c(Cl)cccc2Cl)nnc1-c1ccncc1
33	3.6%	-2.0%	CCOC(=O)C1CCN(C(=O)CCc2c(C)nc3c(-c4ccc(F)cc4)c(C)nn3c2C)CC1
34	-1.0%	2.9%	O=C(CN1CCN(c2ccc(F)cc2)CC1)N1CCOCC1
35	-19.2%	2.7%	NCCc1nnc(SCc2c(Cl)cccc2Cl)o1
36	2.6%	x	CCOC(=O)N1CCN(CC(=O)Nc2nc3ccccc3s2)CC1
37	-1.5%	-2.6%	Cc1ccc(/C=N/NC(=O)C(C)Oc2ccccc2[N+](=O)[O-])s1 (centres undefined)
38	-4.6%	5.8%	CC(=O)[C@@]1(O)CC[C@H]2[C@@H]3CCC4=CC(=O)CC[C@]4(C)[C@H]3[C@@H](O)C[C@@]21C
39	3.7%	5.0%	CCOc1ccc(N2C(=O)CC(n3nc(C)cc3C)C2=O)cc1 (centres undefined)
40	1.5%	2.6%	CCOCCCNC(=O)Cn1nc(-c2ccccc2)ccc1=O
41	-7.1%	8.4%	COc1cc(CC(=O)NC(c2ccccc2)c2ccccc2)cc(OC)c1OC
42	-3.0%	1.0%	CCOC(=O)C1CCCN(CCC(=O)Nc2ccc(F)c(F)c2)C1 (centres undefined)
43	-0.2%	7.6%	COc1cccc(NC(=O)NNC(=O)CN2C(=O)COc3ccccc32)c1
44	-10.4%	6.0%	CC(=O)c1ccc(N2C(=O)[C@@H]3C(CCC(N)=O)NC4(C(=O)Nc5c4ccc(Cl)c5C)[C@@H]3C2=O)cc1 (some centres undefined)
45	-8.4%	4.6%	CCCc1nnc(NC(=O)Nc2ccc(OC)cc2)s1
46	x	2.5%	CN(C(=O)COC(=O)CCCc1c[nH]c2ccccc12)c1c(N)n(Cc2ccccc2)c(=O)[nH]c1=O
47	-0.3%	-5.7%	O=C(O)CCC(=O)N1CCN(S(=O)(=O)c2cccs2)CC1
48	3.5%	0.0%	Cc1cc(OCC(=O)NCCc2cccc(F)c2)c2c(C)cc(=O)oc2c1
49	24.7%	3.0%	Cc1ccc(S(=O)(=O)N2CN(CC3CCCO3)c3nc4ccccc4nc32)cc1 (centres undefined)
50	4.4%	4.0%	Cn1ccnc1SCC(=O)c1cc2ccccc2o1
51	-5.1%	2.0%	O=C(CN(C(=O)c1ccccc1Cl)C1CCCCC1)Nc1ccc(Cl)c([N+](=O)[O-])c1
52	1.7%	3.1%	O=[N+]([O-])c1c(-c2cn[nH]c2)n[nH]c1-c1cn[nH]c1
53	1.5%	-2.4%	CC(C)Oc1ccc(CCC(=O)NNC(=S)Nc2ccccc2)cc1
54	-4.1%	-6.6%	O=C(NC1CC2CCC(C1)N2Cc1ccco1)c1ccccc1 (centres undefined)
55	2.4%	2.7%	Cc1ccc(CNC(=O)c2ccc(COc3ccccc3)cc2)cc1
56	18.0%	-5.5%	COc1ccc(S(=O)(=O)N2CCCCC2)cc1C(C)C
57	-8.5%	-1.9%	CC1CCc2c(C(=O)NCc3ccco3)csc2C1 (centres undefined)
58	15.2%	2.6%	CCOC(=O)c1c(NC(=O)CCN2C(=O)c3cccc([N+](=O)[O-])c3C2=O)sc(C(=O)OC(C)C)c1C
59	-0.6%	x	N#C/C(=C\C=C\c1ccccc1[N+](=O)[O-])C(=O)NCc1ccccc1
60	-2.0%	2.7%	CN1CCN(c2ccccc2NC(=O)c2ccc(N3CCCCC3)c([N+](=O)[O-])c2)CC1

Down the list, as entered above:
TDP1 inh for entries 46 to 50 → 2.5%, -5.7%, 0.0%, 3.0%, 4.0%
N370S GC for entries 46 to 50 → x, -0.3%, 3.5%, 24.7%, 4.4%

Grouped by structure, the compounds so far with bromine.
cpd	N370S GC	TDP1 inh	Molecule
14	-6.6%	2.1%	CCOc1ccc(N(CC(=O)Nc2ccc(Br)cc2)S(C)(=O)=O)cc1
18	-11.0%	x	O=C(OCc1ccc(Br)cc1)c1cccnc1Cl

Following part
cpd	N370S GC	TDP1 inh	Molecule
61	1.7%	6.5%[56.1 µM]	O=c1[nH]cnc2c1ncn2C1CC(O)C(CO)O1 (centres undefined)
62	-9.3%	-1.6%	COc1ccc(S(=O)(=O)N2CCCC(C(=O)NCc3cccnc3)C2)cc1OC (centres undefined)
63	-1.0%	x	Cc1cc(C)cc(N2C(=O)CC(Sc3ncn[nH]3)C2=O)c1 (centres undefined)
64	-8.3%	x	COc1ccc(-c2nn(-c3ccccc3)cc2C(=O)O)cc1N
65	x	0.1%	COc1ccc(NC(=O)COC(=O)/C=C/c2cccs2)c(OC)c1
66	9.7%	-2.1%	O=C(NCc1ccc(Cl)cc1)c1cccnc1
67	-8.5%	0.0%	Cc1onc(-c2ccccc2)c1C(=O)N1CCN(Cc2ccc3c(c2)OCO3)CC1
68	14.1%	-3.0%	O=C(Cn1nnc(-c2ccccc2)n1)OCc1csc(-c2ccccc2)n1
69	-5.0%	7.1%	CN1CCCC(OC(=O)CCCCC(=O)OC2CCCN(C)C2)C1 (centres undefined)
70	-4.3%	0.0%	N#Cc1cc([N+](=O)[O-])cnc1NCC(O)CO (centres undefined)
71	6.7%	6.1%	CCCNC(=O)NCCc1c(C)[nH]c2ccccc12
72	-3.1%	x	CCN(CC)C(=O)CNC(=O)c1nn(-c2ccc(OC)c(Cl)c2)c(=O)c2ccccc12
73	-10.1%	2.6%	Cc1cc(C)cc(NC(=S)NCc2cccs2)c1
74	-3.4%	0.0%	CCN1CCN(c2ccc(S(=O)(=O)N3CCOCC3)cc2NC(=O)C(C)Oc2ccc(Cl)cc2)CC1 (centres undefined)
75	8.8%	-2.8%	CN(Cc1nc(-c2cnccn2)no1)Cc1n[nH]c2c1CCCCC2
76	-10.5%	x	CN(C)CCNc1c2c(nc3ccccc13)CCC2
77	-2.5%	1.2%	O=C(CCNC(=O)c1ccc([N+](=O)[O-])cc1)Nc1nccs1
78	-25.5%	x	COc1ccc(C(=O)NCCNc2ccc([N+](=O)[O-])cn2)cc1
79	8.0%	2.6%	NS(=O)(=O)c1cccc(NC(=O)COc2ccc([N+](=O)[O-])cc2)c1
80	x	-1.3%[56.1 µM]	Cc1nc2cc(-c3ccccc3)nn2c(N)c1-c1ccccc1
81	-0.9%	0.0%	C=CCNC(=O)CN(c1ccc(OC)cc1OC)S(C)(=O)=O
82	-9.0%	x	CCN1C(=O)[C@H]2[C@@H](c3ccc(C)cc3)N3C(=O)N(c4ccc(OC)cc4)C(=O)[C@@]3(C)[C@H]2C1=O
83	4.0%	6.2%	CN(C)CCn1c(C(=O)O)cc2ccccc21
84	-3.2%	5.5%	O=C(O)CNC(=S)N(Cc1ccccc1)Cc1cccnc1
85	-0.2%	2.6%[56.1 µM]	CCOc1ccc(NC(=O)Nc2nc3ccc(S(C)(=O)=O)cc3s2)cc1
86	-2.4%	4.8%	CC12CCC(C(=O)N3CCN(c4ccccc4)CC3)(CC1=O)C2(C)C (centres undefined)
87	3.1%	3.9%	CCC(=O)O/N=C(\N)c1ccc(Oc2cc(C)c(Cl)c(C)c2)c([N+](=O)[O-])c1
88	-17.3%	8.2%	O=S(=O)(c1ccc(NC(=S)NN=C(C2CC2)C2CC2)cc1)N1CCOCC1
89	-2.7%	2.1%	Cc1ccc(C)c(S(=O)(=O)N2CCN(C(=O)CSc3ccccc3F)CC2)c1
90	x	1.2%	COc1ccc(Cn2c(CCC(=O)Nc3ccc(C)cc3C)nc3cccnc32)cc1
91	2.6%	7.2%	COc1ccc(N2CCN(CCCNC(=O)Cn3c(=O)c4cccn4c4cccnc43)CC2)cc1

By substructure: the entries above with a Cl atom
cpd	N370S GC	TDP1 inh	Molecule
2	6.0%	-6.2%	CC1Cc2ccccc2N1S(=O)(=O)c1ccc(Cl)nc1 (centres undefined)
4	0.2%	0.0%	CC(OC(=O)CCc1nc2ccccc2c(=O)[nH]1)C(=O)Nc1ncc(Cl)cc1Cl (centres undefined)
11	-17.4%	7.1%	CCCn1c(SCC(=O)N2CCN(S(=O)(=O)c3ccc(Cl)cc3)CC2)n[nH]c1=O
15	4.8%	2.0%	COc1cnn(C(C)(C)C)c(=O)c1Cl
17	7.2%	-3.3%	CN1C(=O)C2(OCC(COc3ccc(Cl)cc3)O2)c2ccccc21 (centres undefined)
18	-11.0%	x	O=C(OCc1ccc(Br)cc1)c1cccnc1Cl
22	0.4%	x	Cc1ccnc(NC(=O)Cc2c(F)cccc2Cl)c1
24	0.8%	x	Cc1c(Cl)cccc1-n1c(SCC(=O)N2CCC(C(=O)O)CC2)nc2ccccc2c1=O
32	2.7%	x	CN(C)CCCn1c(SCc2c(Cl)cccc2Cl)nnc1-c1ccncc1
35	-19.2%	2.7%	NCCc1nnc(SCc2c(Cl)cccc2Cl)o1
44	-10.4%	6.0%	CC(=O)c1ccc(N2C(=O)[C@@H]3C(CCC(N)=O)NC4(C(=O)Nc5c4ccc(Cl)c5C)[C@@H]3C2=O)cc1 (some centres undefined)
51	-5.1%	2.0%	O=C(CN(C(=O)c1ccccc1Cl)C1CCCCC1)Nc1ccc(Cl)c([N+](=O)[O-])c1
66	9.7%	-2.1%	O=C(NCc1ccc(Cl)cc1)c1cccnc1
72	-3.1%	x	CCN(CC)C(=O)CNC(=O)c1nn(-c2ccc(OC)c(Cl)c2)c(=O)c2ccccc12
74	-3.4%	0.0%	CCN1CCN(c2ccc(S(=O)(=O)N3CCOCC3)cc2NC(=O)C(C)Oc2ccc(Cl)cc2)CC1 (centres undefined)
87	3.1%	3.9%	CCC(=O)O/N=C(\N)c1ccc(Oc2cc(C)c(Cl)c(C)c2)c([N+](=O)[O-])c1

This is a subset; most or all hits stand in other tables.
